# Screens as filed in PubChem BioAssay.
# HIV TAR-Tat – HIV-1 TAR-Tat binding disruption. HIV-1 TAR RNA, Tat peptide displacement FRET; active compounds read high. z-score (no concentration beside the values). hit rate 0.6% among 100,000. AID 1259389;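 also: score is relative to mean and SD of negative controls; some compounds called inactive have numbers as strong as hits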
# CDC25B-CDK2 inh – human CDC25B-CDK2/CyclinA binding inhibition; hit rate 0.72% among 94,000; P30305+P24941; HTRF CDC25B-CDK2/CyclinA binding, anti-His/anti-Flag; active compounds read high; z-score (no concentration beside the values);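 also: score is relative to mean and SD of negative controls; strong numbers were not always called active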
# Starred values were filed as active, the others as inactive; x = no result given.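 The calls were made as follows: active = z-score from 3 up in half or more of its runs; inactive = the rest.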
SMILES,HIV TAR-Tat,CDC25B-CDK2 inh
O=C(c1ccco1)N1CCN(C2=NS(=O)(=O)c3ccccc32)CC1,x,-0.39
CN(C)c1ccc(CN(Cc2ccco2)C(=O)c2cc(-c3cccs3)on2)cc1,1.31,-1.11
CSc1sc(NC(=O)Nc2ccc(Cl)cc2)cc1S(=O)(=O)C(C)C,x,-2.26
O=c1cc(CSc2n[nH]c(-c3ccccc3)n2)[nH]c2ccccc12,-0.02,x
COCCOC(=O)C1=C(C)NC2=C(C(=O)CC(c3ccccc3Cl)C2)C1c1ccc2c(c1)OCO2 (centres undefined),0.28,-1.04
COc1ccc(C2N3CC4(C)CN2CC(C)(C3)C4O)cc1OC (centres undefined),x,-1.07
Cc1ccc(-n2nc(C)c3c2CC(c2ccco2)CC3=O)cc1 (centres undefined),-0.81,-2.14
Clc1ccccc1/C=C/c1nn2c(-c3ccco3)nnc2s1,18.8*,3.21
CCSc1nn2c(=O)cc(CSc3nc4ccccc4[nH]3)nc2s1,0.08,-1.61
CC(C)c1ccccc1OC(=O)CSc1nc(-c2ccco2)nc2cc(=O)[nH]n12,0.1,x
O=C(CSc1nc2ccccc2nc1N1CCCCC1)NC1CCCCC1,0.4,-0.22
CSCCC(NS(=O)(=O)c1ccc2c(c1)oc(=O)n2C)C(=O)Nc1ccc(Cl)cc1 (centres undefined),-1.4,-1.35
COC(=O)Cc1cc(=O)n2[nH]c(C)nc2n1,-1.59,-2.25
Cc1cc(-c2ccc(S(=O)(=O)NCc3cccs3)s2)on1,0.83,x
NC(N)=NC(N)=Nc1cccc([N+](=O)[O-])c1,x,-1.31
COc1ccc(C2NC(=O)NC(O)(C(F)(F)F)C2C(=O)c2ccc(C)cc2)cc1OC (centres undefined),x,-2.42
COC(=O)c1cccc(Nc2nn3c(=O)c4ccccc4nc3s2)c1,0.47,x
CCC(C)OC(=O)c1c(NC(=O)c2nc3nc(C)cc(C(F)F)n3n2)sc2c1CCCC2 (centres undefined),-1.41,-2.73
COCCN[C@H]1CS(=O)(=O)C[C@@H]1S(=O)(=O)c1ccc(F)cc1,0.37,-1.13
Cc1ccc2c(Cl)c(C(=O)N(Cc3ccc(C)o3)C3CCS(=O)(=O)C3)sc2c1 (centres undefined),1.84,-1.21
Cc1cccc(-n2ncc(C#N)c2-c2ccccc2)c1,0.68,0.73
CC(C)COCC1CC2(CC(C)(c3csc(N)n3)OC2=O)C(=O)O1 (centres undefined),-0.83,0.46
Cc1ccc(N(C)c2c(-c3ccc(C(C)C)cc3)c(=O)c2=O)cc1,1.83,x
CC(NC(=O)C(=O)Nc1ccc2nc3n(c(=O)c2c1)CCCCC3)c1ccc2c(c1)OCCO2 (centres undefined),x,-1.58
O=c1c(Nc2ccc(F)cc2)c(-c2ccccc2)c1=O,2.44,x
CCOC(=O)c1sc(=S)n(-c2ccc(OC)c(Cl)c2)c1N,1.91,x
Cc1noc(/C=C/c2ccco2)c1S(=O)(=O)N1CCC(C(=O)NCCCN2CCCC2)CC1,-3,-0.2
COC(=O)C1=C(C)NC2=C(C(=O)CCC2)C1c1ccc(-c2ccsc2C(=O)OC)o1 (centres undefined),x,-1.93
FC(F)(F)c1cnc(NCCNc2cnc3ccccc3n2)c(Cl)c1,x,-3.27
Cc1cc(-c2ccccc2)n2nc(C)c(-c3ccccc3)c2n1,-2.17,0.38
COc1ccc(OC)c(CCNc2nc(-c3ccc(OC)c(OC)c3)no2)c1,0.27,x
Cc1nn(-c2nncc(-c3ccccc3)n2)c2c1C(c1cccc(F)c1F)CC(=O)N2 (centres undefined),2.23,-0.4
Cc1ccc(CN(C(=O)Cc2coc3ccc(C(C)C)cc23)C2CCS(=O)(=O)C2)cc1 (centres undefined),1.4,-2.45
Cc1ccc(C)c(Nc2cc(C)nc3nc(-c4ccco4)nn23)c1,-3.71,x
CN1C(=O)C(C)(C)c2cc(S(=O)(=O)N(C)CC(=O)N3CCN(C4CCCC4)CC3)ccc21,1.81,x
Cc1cc(C(=O)NCc2ccc(N3CCOCC3)cc2)nn1C,x,-2.15
COc1cccc(-c2n[nH]c3c2C(c2cccc(OC)c2)NC3=O)c1 (centres undefined),-1.09,0
COc1ccccc1NC(=O)CSc1cc(C(F)(F)F)cc(C(F)(F)F)c1,x,-0.93
COC(=O)c1sc(NC(=O)CSc2ncnc3sc4c(c23)CCC4)c(C(=O)OC)c1C,x,-2.83
O=C1c2ccncc2C(=O)N1c1ccc(F)c(F)c1,0.12,x

# Brought forward from above: 6 compounds, then new ones.
SMILES,HIV TAR-Tat,CDC25B-CDK2 inh
CN1C(=O)C(C)(C)c2cc(S(=O)(=O)N(C)CC(=O)N3CCN(C4CCCC4)CC3)ccc21,1.81,x
Cc1cc(C(=O)NCc2ccc(N3CCOCC3)cc2)nn1C,x,-2.15
COc1cccc(-c2n[nH]c3c2C(c2cccc(OC)c2)NC3=O)c1 (centres undefined),-1.09,0
COc1ccccc1NC(=O)CSc1cc(C(F)(F)F)cc(C(F)(F)F)c1,x,-0.93
COC(=O)c1sc(NC(=O)CSc2ncnc3sc4c(c23)CCC4)c(C(=O)OC)c1C,x,-2.83
O=C1c2ccncc2C(=O)N1c1ccc(F)c(F)c1,0.12,x
N#CCOc1c(Cl)cccc1Cl,x,-0.32
NC(=O)c1c(NC(=O)CSc2nnnn2-c2ccccc2)sc2c1CCC2,0.03,0.15
Cc1ccc(C)c(Cn2c(CN3CCOCC3)nc3ccccc32)c1,1.46,-2.42
CCOC(=O)C1CCN(S(=O)(=O)c2ccc3[nH]c4c(c3c2)CCCC4)CC1,-1.14,x
COc1ccc(N2CN=C3SC(CO)(CO)C(=O)N3C2)cc1,x,-3.91
CCOC(=O)N1CCC(Nc2c(NCCCN3CCCC3)c(=O)c2=O)CC1,0.95,-0.84
CC(C)OCCCNC(=O)C1CCCN(c2ncnc3c2nc2n3CCCCC2)C1 (centres undefined),0.25,x
O=C(Nc1ccccc1F)c1cnn(-c2cccc(F)c2)c1-n1cccc1,0.29,x
CCc1cccc(NS(=O)(=O)c2c(C)nc3sccn3c2=O)c1,-1.46,x
CCOC(=O)C(C)Sc1nnc(CSc2nc(C)cc(C)n2)n1-c1ccccc1 (centres undefined),-0.18,-1.95
O=C(c1ccc2oc(=O)[nH]c2c1)N1CCCC1,1.04,x
COc1ccc(Cn2c(=O)sc3ccccc32)cc1,0.09,0.02
COc1ccc(C2/C(=C(\O)c3ccc(Cl)cc3)C(=O)C(=O)N2CCN(C)C)cc1OC (centres undefined),1.38,-3.45
COc1cc(OC)c(NC(=O)C2CC3CCCN3C23C(=O)Nc2ccccc23)cc1Cl (centres undefined),1.89,x
CCCS(=O)(=O)N1CCN(Cc2noc(CCC(=O)N3CCCCC3)n2)CC1,0.63,x
O=C(CC1(O)C(=O)N(Cc2ccccc2Cl)c2ccccc21)c1ccc(Br)s1 (centres undefined),x,-4.78
CCC1=NN(C(=O)c2ccc(C)cc2)C(O)(C(F)(F)F)C1 (centres undefined),x,-0.28
CCOC(=O)c1cc2ccccc2o1,0.63,2.17
Cn1cnc(S(=O)(=O)N2CCCC(c3nnc(C(=O)Nc4ccccc4)s3)C2)c1 (centres undefined),1.35,x
CCn1c2ccccc2c2cc(N)ccc21,-7.43,x
CC(NC(=O)CSc1nc(-c2ccccc2F)nc2cc(=O)[nH]n12)c1nc2ccccc2n1C (centres undefined),1.5,x
COc1ccc(Cc2nnc(SCC(=O)O)o2)cc1,0.29,-1.26
CSc1cccc(NS(=O)(=O)c2ccc(-c3ccc(=O)[nH]n3)s2)c1,-0.28,x
COc1cc(OC)cc(-c2nc3ccccc3c(=O)o2)c1,2.78,-0.45
CCN(C(=O)CSc1nnc(C)n2c1cc1sccc12)c1ccccc1,1.4,x
CCOc1ccc(C2SCC3C(=O)N(CCc4ccccc4)C(=O)N32)cc1 (centres undefined),1.54,0.63
CN(C)CCOC(=O)c1ccc(C(=O)c2ccccc2)cc1,2.61,0.4
N#CC(CO)Cc1cc([N+](=O)[O-])ccc1N1CCCCC1 (centres undefined),x,-2.5
COc1ccc(-n2nnnc2C2CCN(S(=O)(=O)c3c(C)c(C)cc(C)c3C)CC2)cc1,0.17,-0.39
O=C(Nc1ccccc1)c1csc2ccc(Cl)cc12,x,-1.73
O=C(c1ccc(-c2cc(N3CCOCC3)ncn2)cc1)N1CCC(N2CCCCC2)CC1,0.09,x
CCn1nc(C)c(CCNC(=O)NCC2CCCO2)c1C (centres undefined),-2.03,x
COC(=O)C1C(=O)C2=C(CC1C)NC(C)=C(C(=O)OC(C)C)C2c1ccc(OC)c(O)c1 (centres undefined),0.28,-0.06
Brc1ccc(CSc2ccc(-c3ccncc3)nn2)cc1,0.28,x
Cc1cc2n(n1)CCC(=O)N2CC(=O)NCCCOC(C)C,0.73,x
CCOC(=O)c1ccc2[nH]c(CSc3nnc(-c4cccs4)n3CC)cc(=O)c2c1,-0.58,x
COC(=O)CSc1nnc(CSc2ncccn2)n1-c1ccc(Cl)cc1,1.69,-2.1
Cc1nc(N2CCOCC2)c2c(C(=O)Nc3ccc(F)cc3F)c(C)oc2n1,0.64,x
CCOC(=O)N1CCN(C(=O)c2cccn3c(=O)c4cc5ccccc5cc4nc23)CC1,-6.91,x
COC(=O)c1ccc(C2N=C(c3cccc(OC)c3)CC(c3ccccc3O)N2)cc1 (centres undefined),x,0.24

# An excerpt taken from the entries so far, as a working copy:
SMILES,HIV TAR-Tat,CDC25B-CDK2 inh
Cc1nc(N2CCOCC2)c2c(C(=O)Nc3ccc(F)cc3F)c(C)oc2n1,0.64,x
CCOC(=O)N1CCN(C(=O)c2cccn3c(=O)c4cc5ccccc5cc4nc23)CC1,-6.91,x
COC(=O)c1ccc(C2N=C(c3cccc(OC)c3)CC(c3ccccc3O)N2)cc1 (centres undefined),x,0.24

# Additional records.
SMILES,HIV TAR-Tat,CDC25B-CDK2 inh
O=C(NCCCN(Cc1ccco1)C1CCCC1)c1ccc2c(=O)n3c(nc2c1)CCCC3,2.15,x
O=C(CCOc1ccc(F)cc1)N1CCSCC1,x,-0.93
Cc1nc(C)c(C(=O)NCc2ccco2)s1,1.46,-0.87
O=C1CC(c2ccccc2)Oc2ccccc21 (centres undefined),1.43,-1.65
Cc1cccc(NC(c2nnc(-c3ccccc3)o2)c2ccccc2F)c1 (centres undefined),-0.84,-1.89
COc1cc(S(=O)(=O)Nc2ccccn2)ccc1F,1.06,-0.35
O=C1CC(c2ccccc2)CN1C(=O)c1cccnc1 (centres undefined),x,-1.05
O=c1c(-c2ccc3c(c2)CCCC3)c(N2CCCN(Cc3ccc(F)cc3)C2)c1=O,0.33,x
CN(Cc1ccccc1)C(=O)c1c2c(nc3ccccc13)C(=O)N(C1CCCCC1)C2,1.21,x
COc1ccc(OCCSc2cc(-c3ccccc3)ncn2)cc1,1.46,1.4
COc1ccccc1Oc1ccc([N+](=O)[O-])c(Oc2ccccc2OC)c1C#N,x,-2.47
c1ccc(Cc2nc3c4c5c(sc4ncn3n2)CCCC5)cc1,1.62,0.04
CCCCNc1ccc2c3c(cccc13)C(=O)N(CCCC)C2=O,x,-1.93
CCc1ccc(S(=O)(=O)N2CCSC2c2ccc(OC)c(OC)c2)cc1 (centres undefined),0.42,-1.26
CN(C)c1nc(N)c([N+](=O)[O-])c(Nc2cccc(Cl)c2)n1,0.86,x
Cc1c(Cl)cccc1NC(=O)Nc1c(C)n(C)n(-c2ccccc2)c1=O,0.74,0.3
CCCc1nn2cc(-c3ccccc3OCC)nc2s1,1.7,-1.29
CC(C)CCNC(=O)C1(C)Cn2nc(C(=O)N3CCN(C)CC3)cc2C(=O)N1C (centres undefined),-0.82,x
CC(C)CCNc1ncnc2c1cnn2C,0.49,x
N[C@H](C(=O)O)[C@@H]1CC(Cl)=NO1,1.52,x

# Full records as entered above.
# COc1ccccc1Oc1ccc([N+](=O)[O-])c(Oc2ccccc2OC)c1C#N reads HIV TAR-Tat = x; CDC25B-CDK2 inh = -2.47
# O=C(CCOc1ccc(F)cc1)N1CCSCC1 reads HIV TAR-Tat = x; CDC25B-CDK2 inh = -0.93
# O=C1CC(c2ccccc2)Oc2ccccc21 (centres undefined) reads HIV TAR-Tat = 1.43; CDC25B-CDK2 inh = -1.65

# Among those listed so far, two contain a COOH group:
SMILES,HIV TAR-Tat,CDC25B-CDK2 inh
COc1ccc(Cc2nnc(SCC(=O)O)o2)cc1,0.29,-1.26
N[C@H](C(=O)O)[C@@H]1CC(Cl)=NO1,1.52,x
